# Yeast UUG start = modulators of start codon recognition fidelity in yeast | S. cerevisiae UUG-firefly luciferase reporter, luminescence/redox ratio | activity score, % at 18.7 µM | 350,000 compounds, 0.13% hits;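 active = replicate mean at a twofold rise or more, about +100% in these data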;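 note: firefly luciferase made from a UUG start codon reports start codon fidelity; reporter light over untreated wells divided by growth signal over untreated wells; some hits fall short of that in this replicate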
# Rce1 inhib = yeast Ras-converting enzyme inhibition. yeast membranes, quenched prenylated peptide cleavage fluorescence. calls only. 290,000 compounds, 0.27% hits. AID 2563;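 active = fall in fluorescence gain of 50% or more versus controls, with final raw signal at or below 3038400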;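 note: plate controls were neutral control wells for no effect and wells lacking membranes for full effect; tested at 10 µM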
# Target sequence (Q03530 whole entry, looked up): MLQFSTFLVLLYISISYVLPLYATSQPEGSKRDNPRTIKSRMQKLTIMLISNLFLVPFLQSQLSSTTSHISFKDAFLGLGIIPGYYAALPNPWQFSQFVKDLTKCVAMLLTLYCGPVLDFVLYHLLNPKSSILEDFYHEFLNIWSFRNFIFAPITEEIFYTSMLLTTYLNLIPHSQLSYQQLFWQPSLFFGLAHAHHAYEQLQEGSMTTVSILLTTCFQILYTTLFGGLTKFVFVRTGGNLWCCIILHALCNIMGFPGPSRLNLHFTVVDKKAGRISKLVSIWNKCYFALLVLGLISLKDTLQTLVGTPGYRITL
# Env fusion inh = blocks HIV Env-driven cell-cell fusion | HeLa-JRFL Env/CEM21 cell fusion, luciferase | inhibition, % at 12.3 µM | 360,000 compounds, 1.1% hits | AID 651610;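 active = mean replicate inhibition score of at least 50 and every replicate individually at or above 50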;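 note: 0% = plate neutral controls and 100% = maraviroc near 300 nM; one replicate is shown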
# PABP polyA inh = blocks human PABP binding to poly(A) RNA; P11940; inhibition, % at 35 µM; 290,000 compounds, 1% hits; fluorescence polarization; AID 2014;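 active = 50% or more with normal probe brightness, or confirmed in later tests; about a fifth of its hits are not listed in these tables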;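 note: calls also rest on retests at 20 µM and on dose response follow-up; controls were probe without protein and protein plus probe with vehicle; some compounds called inactive have numbers as strong as hits; many hits fall short of the cut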
# Target sequence (P11940 whole entry, looked up): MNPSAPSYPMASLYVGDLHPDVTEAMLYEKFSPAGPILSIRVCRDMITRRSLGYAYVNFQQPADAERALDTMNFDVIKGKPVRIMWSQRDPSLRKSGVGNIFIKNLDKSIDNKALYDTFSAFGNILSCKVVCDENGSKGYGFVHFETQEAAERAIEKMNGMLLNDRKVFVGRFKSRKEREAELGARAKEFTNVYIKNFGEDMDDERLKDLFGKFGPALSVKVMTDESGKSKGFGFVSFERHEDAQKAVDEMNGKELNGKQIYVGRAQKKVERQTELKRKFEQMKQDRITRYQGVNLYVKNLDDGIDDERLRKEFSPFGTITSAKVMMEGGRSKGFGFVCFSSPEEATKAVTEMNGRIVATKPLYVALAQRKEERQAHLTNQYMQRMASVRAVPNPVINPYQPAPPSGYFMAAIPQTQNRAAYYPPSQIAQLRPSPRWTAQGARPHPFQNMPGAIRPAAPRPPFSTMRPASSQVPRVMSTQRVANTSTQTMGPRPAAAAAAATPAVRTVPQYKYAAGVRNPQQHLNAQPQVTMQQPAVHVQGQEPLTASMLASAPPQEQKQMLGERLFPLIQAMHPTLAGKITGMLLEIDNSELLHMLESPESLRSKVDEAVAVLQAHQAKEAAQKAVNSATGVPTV
# eIF4H FP inh = inhibitors of RNA binding by human eIF4H | Q15056 | eIF4H fluorescence polarization binding assay | inhibition, % at 35 µM | 290,000 compounds, 0.94% hits;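 active = 50% or more with normal probe brightness, or confirmed in later tests; about a fifth of its hits are not listed in these tables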;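 note: calls also rest on retests at 20 µM and on dose response follow-up; 0% = protein and probe with vehicle and 100% = probe without protein; strong numbers were not always called active; many hits fall short of the cut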
# MT1-MMP act inh = MT1-MMP (human) activation inhibition; GFP/RFP ratio change, % at 20 µM; HT1080 RFP-PRO-GFP cells, GFP/RFP ratio fluorescence, overnight; percent of plate control window, DMSO zero; P50281; AID 651647; 360,000 compounds, 0.061% hits;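 active = GFP/RFP ratio change of at least 30% with cell ATP level not reduced by more than half and red fluorescence within 50% of control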; note: strong numbers were not always called active
#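 Material – HT1080 RFP-PRO-GFP cells · Control set – DMSO wells and RFP-L50D-GFP cells · Incubation – overnight cell settling, then overnight compound exposure, 37 °C, 5% CO2 · Compound dosing – single-point 20 µM compound, 1% DMSO · Read-out – GFP/RFP fluorescence ratio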
# CSC inhib = blocks cancer stem cells; inhibition, % at 7.5 µM; 300,000 compounds, 1.1% hits; cancer stem cell-like cells viability, luminescence;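 active = mean at 75% or more and at least half the replicates too; tested in HMLE shEcad cells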;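 note: 0% = median of negative and 100% = median of positive control wells; the first replicate is given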
# eIF4H FP inh retest = recorded beside eIF4H FP inh, whose call it bears; inhibition, %; compound at 20 µM; confirmation average;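 mean of two retest wells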
# PABP polyA inh retest = second read-out of PABP polyA inh, no call of its own (marks repeat the call); inhibition, %; compound at 20 µM; confirmation repeats;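 mean of two retest wells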
# MT1-MMP act inh RFP = second read-out of MT1-MMP act inh, no call of its own (marks repeat the call); RFP signal change, %; measured here: RFP expression control read;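 0 = vehicle wells; hits needed this value within 50% of zero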
# Numbers without * were called inactive; i = inactive; . = no result given; & = joins results of further samples. Hits appear at their usual frequency; any-hit rate near 2.9%.
SMILES,Yeast UUG start,Rce1 inhib,Env fusion inh,PABP polyA inh,eIF4H FP inh,MT1-MMP act inh,MT1-MMP act inh RFP,CSC inhib,others
COc1ccc(CNC(=O)COc2ccc(S(=O)(=O)N3CCCCC3)cc2Cl)cc1,4,i,38,2,-6,-7,-10,0,
COc1cc(C2N(c3ccccn3)C(=O)C3CCCN32)cc(OC)c1OC (centres undefined),-16,i,-64,3,0,1,2,-3,
Cc1ccc(S(=O)(=O)NCCN=C(CN2CCCC2)NS(=O)(=O)c2ccc(C)cc2)cc1,-2,.,8,-10,-15,2,2,.,
COc1ccc(Nc2sc(C(=O)Nc3cccc(Cl)c3)c(N)c2C(=O)Nc2ccccc2OC)cc1,.,i,.,2,6,.,.,46,
O=C(Cc1c(O)c2ccccc2[nH]c1=O)NC1CCCCCCC1,-13,i,-94,7,-11,3,-1,-5,
CCCNC(=S)N1CCC(C(=O)c2ccc(F)cc2)CC1,-14,i,7,5,7,0,-6,-15,
O=C1c2cccnc2C(Nc2ccccc2)N1Cc1ccco1 (centres undefined),-7,i,2,19,8,-4,1,-10,
COc1ccc([N+](=O)[O-])cc1C1NN=C(c2ccccc2O)S1 (centres undefined),-12,i,-38,3,4,-4,-6,-13,
C[C@]12CCC(=O)CC1=CCC1C3CC=C(C#N)[C@@]3(C)CC[C@@]12O (some centres undefined),11,i,2,12,-4,2,1,-6,
COCc1cc(C)nc(SCC(=O)Nc2ccc3c(c2)n(C)c(=O)n3C)c1C#N,-7,i,9,2,-2,13,1,-4,
NCCCCNCCCN,-20,i,20,48,14,0,3,-3,
C[C@@H](NC(=O)C1(c2ccccc2)CCN(C(=O)OC(C)(C)C)CC1)C(=O)N[C@@H](C(=O)O)c1ccccc1,-9,.,.,1,-7,1,1,-9,
O=C(CC(c1ccccc1)c1ccccc1O)N1CCCC1 (centres undefined),-8,i,.,8,-3,-1,-5,-15,
COc1ccc2oc(=O)c(-c3csc(Nc4cccc(O)c4)n3)cc2c1,-16,i,.,-8,65,2,-4,.,eIF4H FP inh retest=-7;PABP polyA inh retest=-5
COc1ccc(NC(=O)c2cc(-c3cc(C)cc(C)c3O)n[nH]2)cc1Cl,-15,i,19,-3,-6,-5,-15,99*,
CC(=O)c1cn(CC(=O)Nc2ccccc2C)c2ccccc12,-19,i,.,3,6,-2,-25,-6,
COc1ccc(O)c(CN2CCCC(N3CCN(c4ccccc4OC)CC3)C2)c1 (centres undefined),-14,i,7,0,88,-1,2,9,eIF4H FP inh retest=-2;PABP polyA inh retest=5
O=C(O)CSCC(=O)Nc1ccc(C2CCCCC2)cc1,-24,i,98*,-1,-4,-3,-3,-1,
O=C(NS(=O)(=O)c1ccccc1[N+](=O)[O-])c1ccccc1,3,i,41,23,21,1,4,2,
Cc1sc2nc(C3CC3)nc(NCCNS(C)(=O)=O)c2c1C,-7,i,-2,-3,-6,1,1,-5,
Nc1nc(NCCCN2CCOCC2)nc(NCc2ccccc2)c1[N+](=O)[O-],-14,i,8,10,-4,-3,0,-4,
Cc1cc(=O)oc2cc(OCc3ccc(C(=O)OCC(=O)N(C)C4CCS(=O)(=O)C4)cc3)ccc12 (centres undefined),-10,.,-4,13,15,-5,1,-5,
CCc1ccccc1Nc1nc2ccccc2n1C,.,i,-19,6,-2,0,-1,-11,
N=c1c(C(=O)NC2CCCC2)cc2c(=O)n3ccccc3nc2n1Cc1ccccc1,-13,i,-12,1,-2,-2,-7,-3,
COc1cc(C(C(=O)NC2CCCCC2)N(C(=O)c2cnccn2)c2ccccc2)cc(OC)c1OC (centres undefined),-3,i,-5,-2,-4,2,1,.,

# A run of entries from the list above:
SMILES,Yeast UUG start,Rce1 inhib,Env fusion inh,PABP polyA inh,eIF4H FP inh,MT1-MMP act inh,MT1-MMP act inh RFP,CSC inhib,others
Nc1nc(NCCCN2CCOCC2)nc(NCc2ccccc2)c1[N+](=O)[O-],-14,i,8,10,-4,-3,0,-4,
Cc1cc(=O)oc2cc(OCc3ccc(C(=O)OCC(=O)N(C)C4CCS(=O)(=O)C4)cc3)ccc12 (centres undefined),-10,.,-4,13,15,-5,1,-5,
CCc1ccccc1Nc1nc2ccccc2n1C,.,i,-19,6,-2,0,-1,-11,
N=c1c(C(=O)NC2CCCC2)cc2c(=O)n3ccccc3nc2n1Cc1ccccc1,-13,i,-12,1,-2,-2,-7,-3,
COc1cc(C(C(=O)NC2CCCCC2)N(C(=O)c2cnccn2)c2ccccc2)cc(OC)c1OC (centres undefined),-3,i,-5,-2,-4,2,1,.,

# More records follow.
SMILES,Yeast UUG start,Rce1 inhib,Env fusion inh,PABP polyA inh,eIF4H FP inh,MT1-MMP act inh,MT1-MMP act inh RFP,CSC inhib,others
COC(=O)c1cccc(NC(=O)CN2CCN(Cc3ccccc3)CC2)c1,-9,i,.,-1,5,0,1,.,
O=C(CN(C1CCCCC1)S(=O)(=O)c1ccc(F)cc1)NC1CC1,-23,i,.,-9,-10,4,2,-4,
COc1ccc(C(=O)c2cn[nH]c2-c2cc(C)ccc2O)cc1,-13,i,5,9,-2,5,2,3,
CC1(C)CC(CC(=O)O)C(=O)O1 (centres undefined),-18,i,3,-7,-7,-1,-3,.,
NC(=O)CS(=O)(=O)c1nc2ccccc2n1Cc1ccccc1F,.,i,-26,2,-5,-3,0,-9,
COc1cc(Nc2c3c(nc4ccccc24)CCC3)cc(OC)c1OC,11,i,-271,28,79,-1,-10,58,eIF4H FP inh retest=-5;PABP polyA inh retest=-3
CC(=O)Nc1cccc(C(=O)Nc2cccc(S(=O)(=O)NCc3ccco3)c2)c1,-6,.,.,.,.,4,-6,-15,
COC(=O)C1=CN(C(C)c2ccccc2)C=C(C(=O)OC)C1c1cc(OC)c(OC)c(OC)c1 (centres undefined),-1,i,11,1,-2,-3,-5,-7,
CN(C)CCCN(Cc1ccccc1)C(=S)NCc1ccccc1,.,i,6,12,3,-1,1,-4,
CN(C)c1ccc(O)c2c1CC1CC3C(N(C)C)C(=O)C(C(N)=O)=C(O)[C@@]3(O)C(=O)C1=C2O (some centres undefined),-15,i,34,.,.,-10,-8,-1,
O=C1C(Cl)=C(N2CCOCC2)C(=O)N1c1ccc(Br)cc1,-4,i,2,17,8,.,.,-15,
O=C(CSc1nnc(-c2ccccc2)o1)c1nnc(-c2ccccc2)o1,-23,i,.,50,11,-9,4,-2,
OC(COc1c(F)cc(Br)cc1F)CN1CCc2ccccc2C1 (centres undefined),-16,i,12,8,-5,4,0,6,
O=C(CCNC(=O)c1ccc(Cl)cc1)NN1C(=O)NC2(CCCCC2)C1=O,6,.,.,.,.,1,0,-15,
C[C@H](NC(=O)c1nc[nH]c1C(=O)NCC(=O)OC(C)(C)C)c1ccccc1,9,i,3,2,-2,7,-2,5,
C=CCNc1nc(C2(C)CC3(CC(C)OC3=O)C(=O)O2)cs1 (centres undefined),-17,.,-32,7,11,-2,-2,-18,
COc1cccc(CNC(=S)Nc2cc(C)cc(C)c2)c1,.,i,-1,-8,-9,1,3,1,
O=C(Nc1ccc(OC(F)F)c(Cl)c1)c1ccccn1,.,i,-113,4,-1,3,-7,9,
O=C(NC1CCCC1)c1cc(-c2ccccc2)on1,-7,.,-160,1,-5,6,8,8,
O=C(O)CCNC(=O)c1cncc(Br)c1,7,i,.,-2,-3,1,4,-9,
C=CCSc1nc(N)cc(=O)[nH]1,.,i,-40,6,-6,2,1,-1,
O=[N+]([O-])c1ccccc1OC/C(=N\O)c1ccccc1,-18,i,-8,7,-5,-3,-2,-10,
Cc1noc(C)c1NC(=O)Nc1ccc2c(c1)C(=O)N([C@H](C)CO)C[C@H](C)[C@@H](CN(C)C(=O)NC(C)C)O2,-13&-5,.,13,.,.,1,5,.,
CS(=O)(=O)N(CC(=O)N1CCN(Cc2ccc3c(c2)OCO3)CC1)c1ccc2c(c1)OCO2,-19,i,6,3,1,2,-3,-6,
Fc1ccc(-c2noc(-c3ccc4c(c3)CCO4)n2)cc1,-7,i,-154,-7,-5,1,-3,23,

# Of the compounds above, these have a thiophene ring, fused or not.
SMILES,Yeast UUG start,Rce1 inhib,Env fusion inh,PABP polyA inh,eIF4H FP inh,MT1-MMP act inh,MT1-MMP act inh RFP,CSC inhib,others
COc1ccc(Nc2sc(C(=O)Nc3cccc(Cl)c3)c(N)c2C(=O)Nc2ccccc2OC)cc1,.,i,.,2,6,.,.,46,
Cc1sc2nc(C3CC3)nc(NCCNS(C)(=O)=O)c2c1C,-7,i,-2,-3,-6,1,1,-5,

# Two entries picked at random from those above, as already listed:
SMILES,Yeast UUG start,Rce1 inhib,Env fusion inh,PABP polyA inh,eIF4H FP inh,MT1-MMP act inh,MT1-MMP act inh RFP,CSC inhib,others
COc1cccc(CNC(=S)Nc2cc(C)cc(C)c2)c1,.,i,-1,-8,-9,1,3,1,
CN(C)c1ccc(O)c2c1CC1CC3C(N(C)C)C(=O)C(C(N)=O)=C(O)[C@@]3(O)C(=O)C1=C2O (some centres undefined),-15,i,34,.,.,-10,-8,-1,

# Returning to the listing, repeating the two entries before the break.
SMILES,Yeast UUG start,Rce1 inhib,Env fusion inh,PABP polyA inh,eIF4H FP inh,MT1-MMP act inh,MT1-MMP act inh RFP,CSC inhib,others
CS(=O)(=O)N(CC(=O)N1CCN(Cc2ccc3c(c2)OCO3)CC1)c1ccc2c(c1)OCO2,-19,i,6,3,1,2,-3,-6,
Fc1ccc(-c2noc(-c3ccc4c(c3)CCO4)n2)cc1,-7,i,-154,-7,-5,1,-3,23,
CCC1(C)Cc2sc3c(=O)[nH]c(=S)[nH]c3c2CO1 (centres undefined),.,i,-1,-2,-1,1,6,17,
COc1ccc(-c2cc(CNS(=O)(=O)c3ccc(NC(C)=O)cc3)on2)cc1,-9,i,-5,-3,8,-1,4,-2,
C=C1CCC[C@]2(C)C[C@H]3OC(=O)C(CNCC(OC)OC)[C@H]3CC12 (some centres undefined),-11,i,2,9,2,-6,-5,18,
O=C(Nc1cccc2c1CCCC2)c1cccc(F)c1,-6,i,i,-1,10,0,-2,-6,
COc1cccc2cc(-c3ccnc(=S)[nH]3)oc12,.,i,.,9,-1,.,.,10,
O=C(COc1ccc(Cl)cc1)OCC(=O)N1CCCc2ccccc21,8,i,2,8,-10,1,5,-13,
COc1cc(CC(NC(C)=O)C(=O)NC2CCN(c3c4c(nc5ncnn35)CCC4)CC2)cc(OC)c1 (centres undefined),.,i,.,-8,-4,.,.,-11,
O=C(O)COc1ccc2c(c1)CCCC2,15,.,.,8,-6,7,2,.,
Cc1ccc2c(COC(=O)c3ccccc3OC(F)F)cc(=O)oc2c1,-22,i,-2,2,-6,2,5,-20,
O=C(Nc1nnc(-c2ccc(Br)cc2)o1)c1ccco1,-14,i,.,.,.,3,3,23,
COc1cc(/C(C)=N/NC(=O)CSc2nnc(C)s2)ccc1O,-10,i,10,7,-3,5,6,-13,
CCOC(=O)c1c(C)[nH]c(=S)c(C#N)c1-c1ccc(Cl)cc1,-9,i,5,3,15,-2,3,4,
Cc1ccc(NC(=O)N(Cc2ccco2)C(C)c2ccco2)cc1C (centres undefined),-10,i,10,8,-6,-3,-2,8,
CCN1CCN(C(=O)c2ccc(N3CC4CC(C3)c3cccc(=O)n3C4)c([N+](=O)[O-])c2)CC1 (centres undefined),.,i,8,0,-2,1,4,-3,
O=C(Nc1nc2ccccc2n1CCN1CCCC1)C1CCCCC1,-5,i,-68,0,-4,-1,-4,-10,
N#Cc1cc([N+](=O)[O-])c(-n2nnc3ccccc32)c([N+](=O)[O-])c1,-15,i,.,15,-6,5,5,10,
